KCNQ2 enhance – KCNQ2 (rat) channel potentiation. O88943. CHO-K1 KCNQ2, FluxOR thallium flux fluorescence; hits give high values. B-score at 10 µM. 0.54% of 310,000 active;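 active means fluorescence ratio B-score at least 3 SD of library B-scores, with initial fluorescence B-score within 3 SD, cut at about 5.3 in these data; same plate scores as AID 2156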;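 further: B-score of peak minus minimum over baseline fluorescence ratio after K+ and Tl+ stimulus; positive B-score means potentiation of KCNQ2 with more thallium influx and brighter signal; only the inactives scoring about 0 or higher are listed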
Target sequence (O88943 whole entry, looked up): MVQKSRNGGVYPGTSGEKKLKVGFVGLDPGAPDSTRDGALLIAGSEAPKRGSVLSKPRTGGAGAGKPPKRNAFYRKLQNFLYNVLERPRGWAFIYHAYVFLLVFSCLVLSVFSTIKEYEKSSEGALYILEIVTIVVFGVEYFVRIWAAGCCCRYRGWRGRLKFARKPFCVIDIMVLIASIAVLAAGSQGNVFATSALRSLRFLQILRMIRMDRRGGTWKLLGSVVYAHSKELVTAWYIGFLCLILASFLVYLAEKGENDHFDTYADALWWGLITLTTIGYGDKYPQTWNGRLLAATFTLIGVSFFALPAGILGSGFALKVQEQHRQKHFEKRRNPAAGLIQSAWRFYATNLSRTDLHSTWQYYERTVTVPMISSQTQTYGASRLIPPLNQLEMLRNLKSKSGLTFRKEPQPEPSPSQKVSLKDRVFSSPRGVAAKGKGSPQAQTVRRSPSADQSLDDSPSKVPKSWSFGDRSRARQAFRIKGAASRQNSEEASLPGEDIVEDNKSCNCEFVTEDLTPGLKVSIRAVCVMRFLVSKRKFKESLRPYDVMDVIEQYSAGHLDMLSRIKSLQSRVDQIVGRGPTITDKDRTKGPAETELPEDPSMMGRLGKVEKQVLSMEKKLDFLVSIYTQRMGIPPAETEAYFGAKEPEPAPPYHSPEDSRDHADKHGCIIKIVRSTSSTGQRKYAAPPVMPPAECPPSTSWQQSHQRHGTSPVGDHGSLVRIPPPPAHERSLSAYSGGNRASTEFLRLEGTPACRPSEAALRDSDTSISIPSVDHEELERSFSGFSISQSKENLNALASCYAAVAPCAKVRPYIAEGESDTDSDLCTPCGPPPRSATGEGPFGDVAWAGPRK
KCNQ2 enhance baseline – recorded beside KCNQ2 enhance, whose call it bears; B-score; compound at 10 µM; measured here: initial fluorescence intensity artifact check;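 brightness before thallium and not channel activity; 0 = typical well and far values either way flag optical interference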
* = called active by the depositor.

SMILES	KCNQ2 enhance	KCNQ2 enhance baseline
N#Cc1ccc(CSc2nnc(-c3cnccn3)o2)cc1	0.44	-0.43
CCOC(=O)C1=C(O)C(=O)N(c2ccc(S(N)(=O)=O)cc2)C1c1ccc(Br)cc1 (stereo not given)	0.02	-1.5
O=C(NCc1nc2ccccc2[nH]1)C1=C[C@H](C2CC2)C[C@H](OCc2ccc(CO)cc2)O1	0.82	-0.55
OCCn1nc(-c2ccccc2)cc1-c1ccccc1	0.85	0.21
O=C1C2CC=CCC2C(=O)N1c1cccc(OS(=O)(=O)c2ccc3ccccc3c2)c1 (stereo not given)	1.7	-0.39
CNC[C@H](CC1CCCCC1)NC[C@H](NCCC1CCCC1)[C@H](C)O	1.4	-0.26
N#Cc1c(N)[nH]c(=S)c(C#N)c1-c1ccccc1	1.9	0.26
COc1ccccc1-c1c(C)oc2cc(OC(=O)c3ccco3)ccc2c1=O	0.01	0.01
Cc1ccc(-c2n[nH]c(=S)c3ccccc23)cc1S(=O)(=O)NCC1CCCO1 (stereo not given)	1.8	-0.03
COCCOCC(=O)Nc1ccc(S(=O)(=O)Nc2cc(C)nc(C)n2)cc1	0.94	1.8
O=C(C1CCN(c2nnc(-n3cccc3)s2)CC1)N1CCc2ccccc2C1	0.27	0.09
O=C(C1CC1)N1CCc2cc(S(=O)(=O)N3CCCc4ccccc43)ccc21	0.81	0.2
N#C/C(=C\Nc1ccccn1)S(=O)(=O)c1ccc(Cl)cc1	0.95	-1.7
CCOc1ccc(NC(=O)CS(=O)(=O)c2cn(CC)c3ccccc23)cc1	1	-1.5
O[C@@H]1C2CCCC1[C@]1(O)CCCCC1C2 (stereo not given in full)	0.26	-1.1
O=C(NC(=S)N1CCN(Cc2ccc3c(c2)OCO3)CC1)c1ccc(Cl)cc1	8.9*	-1.3*
Cn1nc(-c2ccc(OCC(=O)Nc3ccccc3)cc2)c2ccccc2c1=O	0.2	4.3
CCC(c1nnnn1C1CCCC1)N(Cc1cccs1)Cc1cc2cc(C)ccc2[nH]c1=O (stereo not given)	0.01	0.47
Cc1cc(NC(=O)CN2C(=O)NC(C)(c3ccc(OC(F)F)cc3)C2=O)no1 (stereo not given)	0.86	-0.26
Cc1sc(NC(=S)NC(=O)c2cccs2)nc1-c1ccc(C(C)C)cc1	2.4	-0.04
Cn1cc(CNC(=O)COc2ccc(Cl)cc2Cl)cn1	0.51	0.6
Cc1ccc2sc(NNC(=O)c3ccc4c(c3)OCCO4)nc2c1C	2.2	-1.3
CCOC(=O)CSc1nc2ccccc2c(=O)n1CCC(=O)NCCc1ccc(OC)c(OC)c1	0.06	-0.46
O=C(O)C(c1ccccc1)N1C(=O)/C(=C\c2ccc(O)c(O)c2)SC1=S (stereo not given)	1	-1.1
COC(=O)c1ccc(N=Cc2c(-c3ccccc3)[nH][nH]c2=O)cc1	1.7	-0.51
CCc1sc(C(C2C(=O)CC(C)(C)CC2=O)C2C(=O)CC(C)(C)CC2=O)cc1[N+](=O)[O-]	2	-2.2
COc1ccc(CCN2C(=O)CC(N3CCN(C/C=C/c4ccccc4)CC3)C2=O)cc1OC (stereo not given)	1	-0.16
CC1CCC(NC(=O)CCNC(=O)c2ccc(Br)cc2)CC1 (stereo not given)	0.38	1.2
C=CCNC(=O)c1onc(CSc2ccccn2)c1C(=O)NCC=C	1.3	-0.19
Cc1nn(C)c(C(=O)NNC(=S)NC2CCCCC2)c1Cl	0.01	1.2

Brought forward from above: 2 entries, then new ones.
SMILES	KCNQ2 enhance	KCNQ2 enhance baseline
C=CCNC(=O)c1onc(CSc2ccccn2)c1C(=O)NCC=C	1.3	-0.19
Cc1nn(C)c(C(=O)NNC(=S)NC2CCCCC2)c1Cl	0.01	1.2
CCNc1nc(NCC)n2c(SCC(=O)Nc3cc(Cl)ccc3OC)nnc2n1	0.42	1.9
Cc1oc2cc(O)cc(C)c2c(=O)c1-c1cnn(-c2ccccc2)c1	2.3	0.47
Cc1sc2ncnc(SCC(=O)N3CCN(C(=O)c4ccco4)CC3)c2c1C	0.17	0.2
S=C1Cc2ccccc2N1	0.62	-1.5
Clc1ccc(C2CC(c3cccs3)n3ncnc3N2)c(Cl)c1 (stereo not given)	0.01	-0.04
COc1ccc(-n2c(SCC(=O)N3CCCCC3C)nnc2-c2cccnc2)cc1 (stereo not given)	0.81	0.09
COc1cc(/C=C/c2ccc3cccc(O)c3n2)c(Br)cc1O	6.4*	0.58*
COC(=O)CN1C(CN2CCOCC2)=Nc2ccc(Br)cc2C1c1ccccc1 (stereo not given)	0.7	0
COc1ccc(C(=O)N[C@H](C(=O)Nc2nc3ccccc3[nH]2)C(C)C)cc1	1.2	1.7
Cc1nn(Cc2c(F)c(F)c(F)c(F)c2F)c(C)c1NC(=O)c1nn(C)cc1Br	0.82	1.3
CCC(Sc1nnc(C)c(=O)[nH]1)C(=O)Nc1cccc2ccccc12 (stereo not given)	1.2	1.7
COC(=O)C1=C(NC(=O)C(C)(C)C)CCS1	0.18	-0.81
O=C(CSC1CC(=O)N(CCc2ccccc2)C1=O)Nc1ccc(Cl)cc1 (stereo not given)	0.16	1.1
Cc1ccc(C(=O)C(OC(=O)CNS(=O)(=O)c2ccccc2)c2ccccc2)cc1 (stereo not given)	1.3	1.1
O=C(CSc1nc2ccc(Cl)cc2o1)NCc1ccc2c(c1)OCO2	0.05	-0.39
O=C(Nc1ccc(C2=NCCN2)cc1)c1ccc(C(=O)Nc2ccc(C3=NCCN3)cc2)c(Cl)c1	1.3	0.44
Cn1c(=S)n(CCC(=O)O)c2ccccc21	1.1	-0.47
Cc1cnc(NC(=O)CCN2C(=O)C3CCCCC3C2=O)s1 (stereo not given)	0.61	0.21
CN1CCN(C(=O)c2ccc3c(c2)NC(=O)C(C)(C)O3)CC1	2	0.61
C/C(=N\NC(=O)c1cccc(S(=O)(=O)N2CCOCC2)c1)c1ccc(OCC(=O)N(C)C)cc1	2.6	-2.4
CCn1cc(C(=O)NCCCOC(C)C)c2cc(OC)c(OC)cc2c1=O	1.3	-0.67
CCOc1ccc(-n2c(C)nc(O)c2N=Nc2ccccc2)cc1	0.41	-1.9
CSc1nc(C)c2c(c1C#N)CCCC2	0.85	0.93
Cc1ccc(O)c(C(=O)c2cnn(-c3ccccc3)c2)c1	1.5	-0.26
CNC(=O)c1[nH]cnc1C(=O)Nc1ccc(C)cc1	0.11	0.68
CCc1ccc(-n2c(=O)c3ccccc3n3c(=S)[nH]nc23)cc1	0.56	-0.42
CC(Oc1ccc(C(=O)NCCc2ccccc2)cc1)C(=O)O (stereo not given)	0.56	1.6
O=C(Cn1cnc2c(cnn2-c2ccc(Cl)cc2)c1=O)NCC1CCCO1 (stereo not given)	0.93	1
Cn1cccc1/C=C1/SC(=O)N(CC(=O)N2CCCC2)C1=O	0.58	2.8
Cc1ccc(Cn2ccc(NC(=O)c3cc(C4CC4)on3)n2)cc1	0.01	-0.06
COC(=O)c1c(-c2cccc(C)c2)csc1N	0.98	-0.68
Cc1c(C(=O)OCC(=O)N(C)C2CCS(=O)(=O)C2)oc2ccc(Br)cc12 (stereo not given)	0.94	-0.89
CC(=O)Nc1cccc(-c2nnc(SCC(=O)n3c4c(c5ccccc53)CCCC4)n2C)c1	0.26	-2.7
CC(Sc1nnc(-c2ccncc2)n1C)C(=O)NCC1CCCO1 (stereo not given)	0.02	-0.19
CC1SC(=NC(=O)C(C)N2C(=O)c3ccccc3C2=O)NC1=O (stereo not given)	0.13	0.31
COc1cc(S(=O)(=O)N2CCOCC2)ccc1NC(=O)COC(=O)c1ccccn1	1.5	-1.3
Cc1ccc(N(CC(=O)NCC2CCCO2)C(=O)CCC(=O)Nc2nccs2)cc1 (stereo not given)	0.58	0.08
COC(=O)c1cc(OC)c(OC)cc1N1C(=O)CCCC1=O	1.3	0.04
O=C(O)Cc1ccc(NC(=O)Nc2cccc3ccccc23)cc1	0.11	1.6
Cc1ccc2c(c1)=C(c1sc(N(C)c3ccc(O)cc3)nc1O)C(=O)N=2	0.01	-0.27
CCOCCCN1C(=O)C(O)=C(C(C)=O)C1c1cccs1 (stereo not given)	0.19	-1.8
COc1cccc(/C=N/Nc2ncnc(Cl)c2N)c1O	2.2	0.2
Cc1ccc(-c2nnn(CC(=O)N(Cc3cccs3)C(C(=O)NC3CCCCC3)c3ccco3)n2)o1 (stereo not given)	0.2	-4
Cc1cc(-c2ccccc2)n2nc(N)nc2n1	0.48	-0.62
CC1CCCN(CCOc2ccc(Br)cc2)C1 (stereo not given)	1.2	-2.2
O=C(Nc1ccc2c(c1)OCO2)c1cnn2c1NC(c1ccco1)CC2C(F)(F)F (stereo not given)	0.47	0.02
CCC(=O)Nc1ccc(-c2nnc(SCC(=O)N3CCCCC3)n2C)cc1	0.24	0.92
Cc1cc(C(=O)COc2cccc3cccnc23)c(C)n1C	0.07	-0.52
CC(=O)C1=C(C)NC(=O)NC1c1ccc(Cl)cc1 (stereo not given)	0.68	-2.3
O=c1cc(-c2ccccc2)[nH]c2cc(Cl)ccc12	0.29	0.46
Cc1ccc2cccc(NC(=O)c3ccc(Br)o3)c2n1	0.07	0.02
COc1ccc(Nc2nc(C(C)(C)C)nc3c2nnn3Cc2ccccc2Cl)cc1OC	0.11	0.18
CC(C)c1nnc(NC(=O)CSc2ncn[nH]2)s1	0.07	0.02
O=C(NCc1ccccn1)C(=O)NN=C1CCCCCCCCCCC1	0.18	-1.1
N#Cc1c(-c2ccco2)nc(SCC(=O)Nc2ccc(S(N)(=O)=O)cc2)[nH]c1=O	1.8	-0.53
COC(=O)c1ccc(NC(=O)C23CC4CC(C2)CC(n2cnc(Cl)n2)(C4)C3)cc1	1.3	-0.51
O=C(COC(=O)c1ccc[nH]c1=O)NC1CCCCCC1	0.37	0.27
CCOc1ccc(NC(=O)c2ccc(NC(=O)CSc3nc4ccccc4c(=O)[nH]3)cc2)cc1	0.02	-1.6
CCOc1ccc2nc(NC(=O)c3ccc(C)o3)sc2c1	0.85	-0.48
CC(C)OC(=O)CSc1nc(Cc2cccs2)nc2ccccc12	0.19	-0.58
The list goes on.
SMILES	KCNQ2 enhance	KCNQ2 enhance baseline
Cc1ccc(-c2nnc(OCc3nc4ccccc4n3C)c3ccccc23)cc1	0.98	-1
O=C(c1ccco1)N1CCCC(Nc2ccc3c(c2)OCCO3)C1 (stereo not given)	0.85	-0.25
O=C(CCN1CCN(c2ccccc2F)CC1)Nc1cccc(F)c1	0.09	-0.18
CCOc1ccc(S(=O)(=O)n2cc(-c3ccc(F)cc3)c(N)n2)cc1	0.79	-0.35
Nn1c(SCC(=O)Nc2nccs2)nnc1C1CC1	0.02	-0.01
Cc1ccccc1NC(=S)NCCc1ccccn1	1.1	0.29
Cc1cccc(C)c1OCCSc1n[nH]c(N)n1	0.53	-0.22
Clc1ccc(CSc2nncn2-c2ccccn2)cc1	0.68	-1.3
CC(C)(C)c1ccc(CSc2nc(N)cc(=O)[nH]2)cc1	2.4	-0.18
O=C(NCc1ccccn1)c1ccc(Br)s1	2.1	-0.54
O=C(CSc1nc(N2CCOCC2)nc(N2CCOCC2)n1)Nc1ccccc1F	0.68	-0.32
CCOc1ccc2nc(NC(=O)c3ccccn3)sc2c1	0.84	0.82
Cc1ncc([N+](=O)[O-])n1CCOC(=O)C12CC3CC(CC(C3)C1)C2	0.11	0.89
Cc1ccccc1N(C(=O)CNC(=O)c1ccco1)C(C(=O)NC1CCCCC1)c1ccncc1 (stereo not given)	0.55	1.6
CCCCOc1ccc(NC(=O)C(=O)NCCCn2ccnc2)cc1	0.54	2.9

Entries above that have a furan ring, fused or not, in the order listed:
SMILES	KCNQ2 enhance	KCNQ2 enhance baseline
COc1ccccc1-c1c(C)oc2cc(OC(=O)c3ccco3)ccc2c1=O	0.01	0.01
Cc1sc2ncnc(SCC(=O)N3CCN(C(=O)c4ccco4)CC3)c2c1C	0.17	0.2
Cc1c(C(=O)OCC(=O)N(C)C2CCS(=O)(=O)C2)oc2ccc(Br)cc12 (stereo not given)	0.94	-0.89
Cc1ccc(-c2nnn(CC(=O)N(Cc3cccs3)C(C(=O)NC3CCCCC3)c3ccco3)n2)o1 (stereo not given)	0.2	-4
O=C(Nc1ccc2c(c1)OCO2)c1cnn2c1NC(c1ccco1)CC2C(F)(F)F (stereo not given)	0.47	0.02
Cc1ccc2cccc(NC(=O)c3ccc(Br)o3)c2n1	0.07	0.02
N#Cc1c(-c2ccco2)nc(SCC(=O)Nc2ccc(S(N)(=O)=O)cc2)[nH]c1=O	1.8	-0.53
CCOc1ccc2nc(NC(=O)c3ccc(C)o3)sc2c1	0.85	-0.48
O=C(c1ccco1)N1CCCC(Nc2ccc3c(c2)OCCO3)C1 (stereo not given)	0.85	-0.25
Cc1ccccc1N(C(=O)CNC(=O)c1ccco1)C(C(=O)NC1CCCCC1)c1ccncc1 (stereo not given)	0.55	1.6

Other records
SMILES	KCNQ2 enhance	KCNQ2 enhance baseline
COC(=O)c1ccc(NC(=O)CN2CCN(c3cccc(Cl)c3)CC2)cc1	1.3	0.01
Cc1c(N)ccc(-n2nc3ccccc3n2)c1C	0.32	0.93
O=C(COc1ccc(Cl)cc1Cl)N1CCCC1	1.8	-0.8
Cc1ccc(N2C(=O)CS(=O)(=O)CC2=O)cc1	0.13	0.13
CCCOC(=O)c1ccc(Cl)c(NC(=O)c2cccnc2)c1	0.01	2.4
COC(=O)c1ccc(CN(C(=O)N2CCN(C)CC2)S(=O)(=O)c2ccc(C)cc2)cc1	1.4	-2.9
CN(C)c1ccc(/C=N/NC(=O)CCc2nc3ccccc3[nH]2)cc1	0.72	0.76
CSc1n[nH]c(/N=C/c2oc(O)c3ccccc23)n1	0.77	-0.07
O=C(Nc1ccc(Cc2ccc(NC(=O)C3CC3)cc2)cc1)C1CC1	0.08	0.76
CSc1nnc(Cc2cc(=O)[nH]c(=O)[nH]2)n1-c1cc(C)ccc1C	0.1	0.05
CC(=O)Nc1cc(S(=O)(=O)Nc2cccc(C)c2)c(C)cc1C	0.39	0.62

High-throughput results from PubChem BioAssay.

Only part of the results is shown; count on the stated rates, not on these rows.
